Screening results from PubChem.
gsp ag: activates gsp, the McCune-Albright syndrome mutation; gsp mutant cells, cAMP HTRF, 30 min; control for the full effect not named in the record; 0.13% of 340,000 active; Potency, µM (top dose mostly 76.9 µM), without a hit: top-dose activation (cAMP increase), usual class: activators; active = well fitted activation curve with a large enough effect; inconclusive = small, poorly fitted or top-dose-only effect, or another doubt; inactive = no such curve, though single readings can be large or run the other way; cell line not stated here;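 further: phosphodiesterase inhibitor Ro 20-1724 added with compounds to block cAMP breakdown; potency means the concentration at half of the fitted maximal effect; nearly all actives have a fitted effect of over 60% in size; about a fifth of the inactives were tested at one dose only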
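Cells stably selected in G418 were plated at 2000/well, grown 16-24 hr, then given compounds in DMSO with the PDE inhibitor […] (300 uM solution added) for 30 min at 37C; cAMP was read by HTRF.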
D2 potentiator: potentiates the human D2 dopamine receptor allosterically; potentiation, % (test concentration not listed); P14416; DiscoveRx D2 beta-arrestin cells, luminescence, 90 min; 100% = 57 uM dopamine signal; 0.23% of 360,000 active; active = potentiation of 50% or more; inconclusive = 30% to 50%; inactive = 30% or less;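 further: compound concentration not given in the record; tested on top of an EC20 dose of dopamine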
Target sequence (P14416 whole entry, looked up): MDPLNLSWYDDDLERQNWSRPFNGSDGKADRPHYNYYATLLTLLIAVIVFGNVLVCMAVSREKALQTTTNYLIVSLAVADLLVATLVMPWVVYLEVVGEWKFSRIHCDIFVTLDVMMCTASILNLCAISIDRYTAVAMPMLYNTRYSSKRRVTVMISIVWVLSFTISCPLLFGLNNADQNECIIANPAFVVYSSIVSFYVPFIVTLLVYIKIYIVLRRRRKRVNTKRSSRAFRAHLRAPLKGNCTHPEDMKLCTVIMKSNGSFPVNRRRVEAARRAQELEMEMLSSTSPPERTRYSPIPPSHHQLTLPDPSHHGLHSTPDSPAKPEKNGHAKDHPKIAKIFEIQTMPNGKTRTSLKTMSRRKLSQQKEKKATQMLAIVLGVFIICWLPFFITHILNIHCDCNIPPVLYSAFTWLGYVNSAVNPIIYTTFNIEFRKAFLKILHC
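PathHunter beta-arrestin assay in DiscoveRx D2 cells. Compounds were added with an EC20 of dopamine (50 nM final) for 90 min at 37 deg C. Luminescence was read 1 h after detection reagent, with 57 uM dopamine as the EC100 control.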
gsp antag: antagonists of gsp mutant (McCune-Albright syndrome) | gsp-mutant cells, cAMP HTRF, 30 min; control for the full effect not named in the record | Potency, µM (titrated, usually from 76.9 µM), without a hit: at the top dose activity change, negative = inhibition, hits mostly inhibitors | 0.4% of 340,000 active | AID 624288; active = falling curve of any shape with a large fitted effect; inconclusive = falling curve, mostly with a smaller effect; inactive = flat or rising curve; cell line not stated here;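 further: intracellular cAMP measured with PDE inhibitor Ro 20-1724 present during compound exposure; potency means the concentration at half of the fitted maximal effect; on the % scale 0 is the no-effect control and ±100 the full control effect; nearly all actives have a fitted effect of over 65% in size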
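Cells, 2000/well, grown 16–24 h in DMEM 10% FBS with 0.5 mg/ml G418, then compounds plus […] (300 uM addition stock), 30 min at 37C. cAMP read by HTRF (cAMP-d2 and anti-cAMP antibody-K in lysis buffer) after 30 min RT.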
Sfp inh: Sfp phosphopantetheinyl transferase inhibition | 3.5% of 310,000 active | Potency, µM, without a hit: max response, negative = inhibition, usual class: inhibitors | Biochemical Sfp PPTase activity, qHTS | AID 1490; active means well fitted inhibition curve with a large enough effect; inconclusive means small, poorly fitted or top-dose-only effect, or another doubt; inactive means no such curve, though single readings can be large or run the other way;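 further: the enzyme is Sfp with the accession as filed and its product quenches rhodamine fluorescence; potency means the concentration at half of the fitted maximal effect; 0% = enzyme reaction without inhibitor and -100% = no enzyme wells; top concentration of the series not given in the record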
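After 15 min at room temperature with compound, 15 nM Sfp received 5 uM rhodamine-CoA plus 12.5 uM BHQ-2-ybbR (50 mM Hepes pH 7.6, 10 mM MgCl2). Rate came from the fluorescence difference over 30 min, ex 525/em 598 nm.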
Menin MLL FP FL: displaces fluorescein MLL peptide from human menin; Fluorescence polarization, fluorescein-MLL peptide displacement from menin; FP activity change, % at 61.4 µM; 290,000 tested, under 10 active; inconclusive = falling polarisation curve, or a change in total fluorescence; inactive = total fluorescence flat and polarisation flat or rising; no compound was filed as active; the % refers to the polarisation; negative = inhibition;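 further: % of control where 0% means no effect; inhibitors lower the polarisation; unlabelled MLL peptide was the positive control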
TRPV1 potentiator: human TRPV1 potentiation | TRPV1-expressing cells, Fluo-8 calcium influx, capsaicin EC20 potentiation; host cell line not named in the record; control for the full effect not named in the record | potentiation, % at 8.33 µM | 0.02% of 320,000 active | AID 540277; active means potentiation above 80%; inconclusive means 30% to 80%; inactive means below 30%; further: 0% is about no effect
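TRPV1-expressing cells were cultured overnight at 35.5C and loaded with Fluo-8 calcium dye for 40 to 90 min at room temperature. After a 10 s baseline, compound was added and calcium influx was read kinetically for 3 min (ex 480/em 520 nm).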
ClpP mod: qHTS Assay for Activators of ClpP; ATP-dependent Clp protease proteolytic subunit (Bacillus subtilis (strain 168)), P80244; purified B. subtilis ClpP, FRET peptide cleavage, 20 min; Potency, µM (titrated, usually from 57.5 µM), inactives show at the highest dose activity change, negative = active; 1.9% of 340,000 active; active = well fitted falling curve with a large enough effect; inconclusive = small, poorly fitted or top-dose-only effect; inactive = no such curve, though single readings can be large or run the other way; further: potency means the concentration at half of the fitted maximal effect; the source files actives as falling curves though it sought activators and does not explain the sign; nearly all actives have a fitted effect of over 65% in size; many hits overshoot -100%
Target sequence (P80244 whole entry, looked up): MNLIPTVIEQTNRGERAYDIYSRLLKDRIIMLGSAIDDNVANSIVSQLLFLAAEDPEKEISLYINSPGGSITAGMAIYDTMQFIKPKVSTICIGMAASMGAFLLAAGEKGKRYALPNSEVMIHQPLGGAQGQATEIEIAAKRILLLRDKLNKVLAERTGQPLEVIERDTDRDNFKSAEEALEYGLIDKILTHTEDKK
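Purified B. subtilis ClpP, 10 microg/mL final in Tris/HCl pH8 with KCl, BSA, glycerol and Tween-20, cleaved an Abz/nitrotyrosine-quenched decapeptide. Fluorescence (ex 320, em 430) was read at 0 and 20 min at room temperature. Delta was normalized to 5.8 microM ADEP and DMSO/no-enzyme controls.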
An asterisk follows results filed as active; [ ] = remark or other dose.

Screening CCOC(=O)c1sc2nc(C)nc(NCc3ccc(F)cc3)c2c1C returned gsp ag -55.8%[15.4 µM], D2 potentiator -3.1, gsp antag -8.1%, Sfp inh -20.8%, Menin MLL FP FL 20.8 and TRPV1 potentiator 4.1.
For CC(=O)Nc1ccc(C(=O)OCc2ccc(Cl)cc2)cc1 the results were gsp ag 10.7%, D2 potentiator -9.4, gsp antag -10.9%, Sfp inh 10.2%, Menin MLL FP FL 0.8, TRPV1 potentiator 4.4 and ClpP mod 0.2%.
CCOc1ncccc1C(=O)OCC(=O)Nc1cc(S(=O)(=O)N2CCOCC2)ccc1C was read as gsp ag inconclusive, D2 potentiator -1.4, gsp antag 13.4%, Sfp inh -9.7%, TRPV1 potentiator -6.6 and ClpP mod -19.8%.
COC(=O)c1ccc(COc2ccc3c(C)c(C)c(=O)oc3c2C)o1 was read as gsp ag -21.2%, D2 potentiator -3.8, gsp antag 3.7%, Sfp inh 13.9%, Menin MLL FP FL 8.5, TRPV1 potentiator 3.5 and ClpP mod -13.2%.
CCOC(=O)C1CCN(c2c(NC3CCCc4ccccc43)c(=O)c2=O)CC1 (stereo not given) was read as gsp ag 1.0%, D2 potentiator -10.0, gsp antag -21.8%, Sfp inh -13.3%, Menin MLL FP FL 2.2, TRPV1 potentiator -1.1 and ClpP mod 0.8%.
O=C(CCc1ccc(S(=O)(=O)N2CCOCC2)cc1)Oc1ccccc1 was read as gsp ag 2.5%, D2 potentiator 8.0, gsp antag -25.3%, Sfp inh -7.5%, Menin MLL FP FL 3.0, TRPV1 potentiator -24.6 and ClpP mod -1.4%.
Screening CCOCCCNc1ncnc2c1nc1n2CCCC1 returned gsp ag 52.2%, D2 potentiator -10.1, gsp antag 7.1%, Sfp inh 2.2%, Menin MLL FP FL -3.8, TRPV1 potentiator 1.4 and ClpP mod -0.1%.
Screening O=C(CCNC(=O)c1ccc([N+](=O)[O-])cc1)Nc1cccc(S(=O)(=O)N2CCCCCC2)c1 returned gsp ag 5.7%, D2 potentiator -1.4, gsp antag -8.0%, TRPV1 potentiator -5.5 and ClpP mod -3.5%.
`COc1ccc(CCNC(=O)Nc2cccc([N+](=O)[O-])c2)cc1` gave gsp ag -0.5%[15.4 µM], D2 potentiator -12.4, gsp antag -23.1%, Sfp inh 20.1%, Menin MLL FP FL 5.3 and TRPV1 potentiator -4.7.
Screening O=C1/C(=C/c2ccccc2)N=C(N2CCOCC2)N1c1cccc(Cl)c1 returned gsp ag -7.2%[15.4 µM], D2 potentiator -0.3, gsp antag -9.5%, Sfp inh -14.6%, Menin MLL FP FL 5.3, TRPV1 potentiator 9.1 and ClpP mod -27.7%.
`CCN1CCCC(Sc2nc3c([nH]2)c(=S)n(C)c(=O)n3C)C1` (stereo not given) gave gsp ag 23.9%, D2 potentiator -11.4, gsp antag -3.3%, Sfp inh inconclusive, Menin MLL FP FL -9.6, TRPV1 potentiator 6.6 and ClpP mod inconclusive.
Screening COc1ccc(-c2c(N)nnc3c2[nH]c2ccccc23)cc1OC returned gsp ag -4.4%, D2 potentiator -3.7, gsp antag -5.2%, Sfp inh 3.5%, Menin MLL FP FL -0.7, TRPV1 potentiator 3.6 and ClpP mod inconclusive.
For CCc1ccc(NC(=O)c2cccc(NC3=NC4CS(=O)(=O)CC4S3)c2)cc1 (stereo not given) the results were gsp ag -42.9%, D2 potentiator -5.6, gsp antag 9.5%, Sfp inh 6.6%, Menin MLL FP FL -8.5, TRPV1 potentiator -27.7 and ClpP mod 1.3%.
`CC(=O)Nc1ccc(NC(=O)C2CC(=O)Nc3ncnn32)cc1` (stereo not given) gave gsp ag 25.1%, D2 potentiator -4.2, gsp antag 13.5%, Sfp inh 12.9%, Menin MLL FP FL -0.9, TRPV1 potentiator -7.8 and ClpP mod -1.5%.
Cc1ccc(S(=O)(=O)N2CCC(C)CC2)c([N+](=O)[O-])c1 was read as gsp ag 15.1%[15.4 µM], D2 potentiator -2.0, gsp antag -2.6%, Sfp inh 5.7%, Menin MLL FP FL 0.2 and TRPV1 potentiator -1.7.
`COc1cc(OC)c(C2C(C(=O)N3CCOCC3)=C(C)NC3=C2C(=O)CC(C)(C)C3)cc1OC` (stereo not given) gave gsp ag -54.5%[inhibitor], D2 potentiator -5.1, gsp antag 12.7%, Sfp inh 9.4%, Menin MLL FP FL -1.6, TRPV1 potentiator -3.6 and ClpP mod -1.5%.
`O=C(CCNC(=O)c1ccccc1Cl)NCC1COc2ccccc2O1` (stereo not given) gave gsp ag -20.8%[15.4 µM], D2 potentiator -68.5, gsp antag 2.9% and TRPV1 potentiator -7.3.
Screening O=C(CNC(=O)c1ccc(C(F)(F)F)cc1)NC1CC1 returned gsp ag 20.2%, D2 potentiator -4.8 and gsp antag 9.4%.
For O=C(CCC(=O)N1CCOCC1)NCCc1ccc(Cl)cc1Cl the results were gsp ag -13.7%, D2 potentiator 3.0, gsp antag -8.2%, Sfp inh 13.5%, Menin MLL FP FL -3.3, TRPV1 potentiator -0.6 and ClpP mod -5.2%.
CN(C)Cc1c(C(=O)N/N=C/c2ccoc2)nnn1-c1nonc1N was read as gsp ag -6.3%[15.4 µM], D2 potentiator -2.1, gsp antag -13.5%, Sfp inh 14.6%, Menin MLL FP FL -1.7 and TRPV1 potentiator 26.9.

Brought forward from above: 4 entries; new compounds follow.
`O=C(CCNC(=O)c1ccccc1Cl)NCC1COc2ccccc2O1` (stereo not given) gave gsp ag -20.8%[15.4 µM], D2 potentiator -68.5, gsp antag 2.9% and TRPV1 potentiator -7.3.
Screening O=C(CNC(=O)c1ccc(C(F)(F)F)cc1)NC1CC1 returned gsp ag 20.2%, D2 potentiator -4.8 and gsp antag 9.4%.
For O=C(CCC(=O)N1CCOCC1)NCCc1ccc(Cl)cc1Cl the results were gsp ag -13.7%, D2 potentiator 3.0, gsp antag -8.2%, Sfp inh 13.5%, Menin MLL FP FL -3.3, TRPV1 potentiator -0.6 and ClpP mod -5.2%.
CN(C)Cc1c(C(=O)N/N=C/c2ccoc2)nnn1-c1nonc1N was read as gsp ag -6.3%[15.4 µM], D2 potentiator -2.1, gsp antag -13.5%, Sfp inh 14.6%, Menin MLL FP FL -1.7 and TRPV1 potentiator 26.9.
`C=CCn1cc(-c2ccccc2)cc(C#N)c1=O` gave gsp ag 17.7%, D2 potentiator -6.9, gsp antag -4.0%, Sfp inh 7.8%, Menin MLL FP FL 0.0, TRPV1 potentiator -9.6 and ClpP mod inconclusive.
For COc1ccc(-n2nc(C(=O)N3CCN(c4ccc(F)cc4)CC3)c3ccccc3c2=O)c(OC)c1 the results were gsp ag -52.2%[inhibitor], D2 potentiator -4.6, gsp antag -11.1%, Sfp inh 10.0%, Menin MLL FP FL -2.2, TRPV1 potentiator 4.0 and ClpP mod -2.4%.
COC(=O)C1=CO[C@@H](O[C@@H]2O[C@H](CO)[C@@H](O)[C@H](O)[C@H]2O)C2C(CO)=CCC12 (stereo not given in full) was read as D2 potentiator -50.3, gsp antag 7.5%, Sfp inh -0.2%, Menin MLL FP FL -4.9 and ClpP mod 0.1%.
Cc1ccc(OCC(=O)c2c[nH]c3ccccc23)c([N+](=O)[O-])n1 was read as gsp ag -25.3%, D2 potentiator -1.8, gsp antag -0.1%, Sfp inh 9.4%, Menin MLL FP FL -6.4, TRPV1 potentiator inconclusive and ClpP mod -0.3%.
`COC(=O)c1ccc(NC(=O)c2ccccc2NS(C)(=O)=O)cc1` gave gsp ag -27.5%, D2 potentiator -18.2, gsp antag -27.1%, Sfp inh 10.3%, Menin MLL FP FL -2.3, TRPV1 potentiator -15.4 and ClpP mod -2.0%.
O=S(=O)(Nc1nc2ccccc2s1)c1ccc(Cl)s1 was read as gsp ag -25.2%, D2 potentiator -2.0, gsp antag inconclusive, Sfp inh 11.8%, Menin MLL FP FL 1.3, TRPV1 potentiator -0.1 and ClpP mod -9.2%.
For CCOc1ccc(N(C(C)=O)c2nc(C)cc(C)c2C#N)cc1 the results were gsp ag -4.0%, D2 potentiator -3.3, gsp antag 1.5%, Sfp inh 24.2%, Menin MLL FP FL 2.0, TRPV1 potentiator 10.4 and ClpP mod 25.1µM*.
For O=C(Cc1cccc2ccccc12)N/N=C/c1ccc2cccc(O)c2n1 the results were gsp ag -17.6%[15.4 µM], D2 potentiator 1.1, gsp antag -34.4%, Sfp inh 5.7%, Menin MLL FP FL 5.8 and TRPV1 potentiator 1.1.
Screening COc1ccc2[nH]c(C)c(CCNC(=S)Nc3cc(C)ccc3C)c2c1 returned gsp ag -22.8%, D2 potentiator -6.3, gsp antag 1.1%, Sfp inh 15.8%, Menin MLL FP FL 3.2, TRPV1 potentiator -16.2 and ClpP mod -10.4%.
`COc1ccc(NS(=O)(=O)c2cc(NC(=O)Cn3cnc4c3c(=O)n(C)c(=O)n4C)ccc2C)cc1` gave gsp ag inconclusive, D2 potentiator -10.6, gsp antag -10.7%, Sfp inh -6.4%, Menin MLL FP FL -8.1, TRPV1 potentiator inconclusive and ClpP mod -3.8%.
